Biofilm kill mix – mixtures killing C. albicans biofilm | C. albicans biofilm persisters + clotrimazole, fluorescence viability; primary screen in compound mixtures of four per well | inhibition, % at 7.6 µM | 120,000 compounds, 0.02% hits;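 active means inhibition above 30.3% in the primary screen of four-compound pools, then above 30% when the compound was retested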;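 further: compounds exposed to preformed 24 h biofilms for 48 h; the number belongs to the whole pool; some results filed as inactive read as strong as hits; inactives centre near 12; 0% = biofilm with clotrimazole alone and 100% = kill control; retested singly at about 60 µM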
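Assay system: C. albicans biofilms / Medium: RPMI/MOPS medium, pH 7.0 / Schedule: biofilm formation 24 h, compound exposure 48 h, 37 °C / Measured by: Alamar Blue fluorescence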
Numbers without * were called inactive.

SMILES | Biofilm kill mix
O=c1c(Cc2ccc(F)cc2)c(O)ccn1CCCn1ccnc1 | -15
Cc1ccccc1Oc1nc2c(C)cccn2c(=O)c1/C=C(\C#N)C(=O)NC1CCS(=O)(=O)C1 (stereo not given) | 11
COc1ccccc1CCc1nnc(CCC(=O)NC(C)Cn2nc(C)cc2C)o1 (stereo not given) | -3
O=C(Cn1cnc2ccccc21)N/N=C/c1cccnc1 | 41
CC(=O)Nc1ccc(C(=O)OCc2ccc(F)cc2Cl)cc1 | 16
CCOc1ccc(/C=N/NC(=O)C(OC)c2ccccc2)cc1 (stereo not given) | 11
CC(=O)N(CN1C(=O)C2C3C=CC(C3)C2C1=O)c1cccc(Cl)c1 (stereo not given) | 22
CCC(=O)N1CCc2cc(S(=O)(=O)CCC(=O)Nc3ccc(OC)c(OC)c3)ccc21 | -2
CCOC(=O)Cc1c(C)[nH]n(-c2ccccc2)c1=O | 20
O=C(COC(=O)c1cccnc1Nc1cccc(C(F)(F)F)c1)NC1CCS(=O)(=O)C1 (stereo not given) | 3
COc1ccc(CN2CCC(CO)(CCOc3ccccc3)CC2)c(OC)c1C | 6
Clc1ccc(/C=N/Nc2nnc(Cl)c3ccccc23)cc1 | 8
Cc1ccc(S(=O)(=O)c2cc3ccccc3oc2=Nc2ccc3c(c2)OCCO3)cc1 | 14
COc1ccc(CCNC(=O)CCn2c(=O)c3ccccc3n(CC(=O)NCC3CCCO3)c2=O)cc1OC (stereo not given) | 29
COc1ccccc1C(=O)O/N=C(\N)c1ccccn1 | 10
Cc1ccc(S(=O)(=O)n2[nH]c(=O)cc2N)cc1 | 20
CN(C[C@H](Cc1ccccc1)N(C[C@H](Cc1cccc2ccccc12)N(CCc1ccccc1)N=O)N=O)N=O | 12
COc1cc(/C=C(\NC(=O)c2ccccc2)C(=O)NCC(=O)O)c([N+](=O)[O-])cc1OC | 14
CC1CCN(C(=O)Cn2nnc(-c3cccs3)n2)CC1 | 24
CCOCCn1c(N2CCN(c3ccccc3)CC2)nc2c1c(=O)[nH]c(=O)n2C | 15
Cc1cc(C(=O)COc2ccccc2C(N)=O)c(C)n1CC1CCCO1 (stereo not given) | 13
O=C(NCCOc1ccccc1)C1CCCCC1 | 12
CCN1CCN(c2cc(C)c3cc(NC(=S)N4CCN(c5ccc(F)cc5)CC4)ccc3n2)CC1 | 10
Cc1cccc(C(=O)O/N=C2/CC3CCC2(C)C3(C)C)c1 (stereo not given) | 13
CCCCN(CC)CCNC(=O)CNC(=O)Cn1ccc2ccccc2c1=O | 14
O=C(COC(=O)/C=C/c1ccc(F)cc1)Nc1cccc(S(=O)(=O)N2CCCC2)c1 | 2
Cc1ccc(NC(=O)COC(=O)CCOc2ccccc2C)cc1 | 12
Cc1nnc(SCC(=O)NCCN2C(=O)CSC2=O)n1-c1ccccc1 | 22
O=C(O)c1cc(-c2ccc(/C=C3/SC(=S)N(Cc4ccccc4)C3=O)o2)ccc1Cl | 9
Cn1c(=O)[nH]c(=O)c2c1nc([N+](=O)[O-])n2Cc1ccccc1 | 10
CN1C(=O)CC(C(=O)O)SC1=Nc1ccc(F)cc1 (stereo not given) | 11
CC(=O)Nc1sc(/C(C#N)=C/c2ccc(Cl)c(Cl)c2)nc1-c1ccc(C)cc1 | 13
CN(C)Cc1nnnn1-c1ccccc1 | 14
CCn1c(SCC(=O)NCC2CCCO2)nnc1-c1ccc(S(=O)(=O)N2CCN(C)CC2)cc1 (stereo not given) | 6
O=C(OC(C(=O)Nc1ccc(Cl)c(C(F)(F)F)c1)c1ccccc1)C1=COCCO1 (stereo not given) | 4
Cc1ccc(C(=O)NCC(=O)OCC(=O)Nc2ccccc2[N+](=O)[O-])cc1 | 9
COc1ccc(C(=O)NC(CC(=O)O)c2cc([N+](=O)[O-])ccc2Cl)c(SC)c1 (stereo not given) | 11
O=C(COC(=O)c1ccccc1C(=O)N1CCN(c2ccccc2)CC1)Nc1ccccc1 | 12
NNS(=O)(=O)c1ccc(N2CCCC2=O)c([N+](=O)[O-])c1 | 15
CCOC(=O)CCC(NC(=O)CC(=O)NC(CCC(=O)OCC)C(=O)OCC)C(=O)OCC (stereo not given) | 49
Cc1ccc(N(CC(=O)Nc2c(C)n(C)n(-c3ccccc3)c2=O)S(C)(=O)=O)c(C)c1 | 13
N#Cc1ccccc1CSc1nnc(Cc2ccccc2)o1 | 5
C=C(C)CNC(=S)NNC(=O)c1ccncc1 | 13
COc1cccc(/C=C2/SC(=S)N(CC(=O)Nc3nnc(C)s3)C2=O)c1 | -5
CC(C)C(OC(=O)c1cccc(S(=O)(=O)NCC(F)(F)F)c1)C(=O)NC(N)=O (stereo not given) | 8
CS(=O)(=O)N(CC(=O)NCc1ccncc1)c1cc(Cl)ccc1Cl | 25
CCc1cc(CNC(=O)CC2C(=O)NCCN2Cc2c(F)cccc2Cl)on1 (stereo not given) | 10
Cc1c(C(=O)OC(C)C)nnn1-c1nonc1N | 11
C/C(=N/NC(=O)CN1CCN(Cc2ccccc2)CC1)c1ccc([N+](=O)[O-])cc1 | 31
O=[N+]([O-])c1cc2c(c(CSc3nnnn3-c3ccc(O)cc3)c1)OCOC2 | 11

(listing goes on)
SMILES | Biofilm kill mix
OCC1(CCOc2ccccc2)CCN(CC2=Cc3cc(Cl)ccc3OC2)CC1 | 18
Cc1ccccc1NCN1C(=O)C2CCC(C)(C1=O)C2(C)C (stereo not given) | 19
COc1cccc(OC)c1C(=O)Oc1ccc2c(c1)O/C(=C\c1ccncc1)C2=O | 10
CCOc1ccc(N2CC(C(=O)Nc3ccc(OC)c(S(=O)(=O)N4CCCCC4)c3)CC2=O)cc1 (stereo not given) | 11
COc1ccc(C(=O)Nc2cc3c(oc2=O)CCCC3=O)cc1 | 3
NC(=O)N/N=C/c1ccccc1OCC(=O)NCc1ccccc1 | 15
COC(=O)C1=C(C)N(CCc2c[nH]c3ccccc23)C(=O)C1 | 14
Cc1[nH]n(-c2ncc(-c3ccc(Cl)cc3)s2)c(=O)c1C(c1ccc(Cl)cc1)C(C#N)C#N (stereo not given) | 14
COc1cccc(/C(O)=C2/C(=O)C(=O)N(CCN3CCOCC3)C2c2cccnc2)c1 (stereo not given) | 7
COc1cccc(/C=C/C(=C2/C(=O)N(c3ccccc3)N=C2C)c2ccccc2)c1OC | 3
C#CCOC(=O)C[N+](C)(C)C/C=C/c1ccccc1 | 24
O=C1c2cccc3cccc(c23)C(=O)N1CCN1CCN(CC(O)COc2ccccc2)CC1 (stereo not given) | 22
Cc1cc(C(C)(C)C)cc(C)c1CC1=NCCN1 | -5
CCOc1cc(CN2CCC(CO)(Cc3cccc(C(F)(F)F)c3)CC2)ccc1OC | 11
COc1ccc(N=C2S/C(=C\c3ccc(OCC(=O)O)cc3)C(=O)N2CCc2c[nH]c3ccccc23)cc1 | 15
CN(C)S(=O)(=O)c1ccc(C(=O)Nc2cc(S(=O)(=O)Nc3ccccc3Cl)ccc2N2CCCCC2)cc1 | 5
O=S(=O)(Nc1ccc2ccccc2c1)c1ccccc1 | 4
Cc1ccc([N+](=O)[O-])cc1NC(=O)C(Sc1ccccc1)c1ccccc1 (stereo not given) | 17
Cc1ccccc1N1CCN(C2=NC(=O)/C(=C/c3cn[nH]c3-c3ccccc3)S2)CC1 | 4
CCN1CCN(C(=O)c2ccccc2NS(=O)(=O)c2ccc(Cl)cc2)CC1 | 17
Cc1nn(C)cc1S(=O)(=O)N1CCCC(C(=O)O)C1 (stereo not given) | 26
O=C(CSc1ccc2nnc(CCNS(=O)(=O)c3ccccc3)n2n1)Nc1nc2ccccc2s1 | 4
O=C(N/N=C/c1ccc[nH]1)c1ccc(Cl)cc1 | 10
CSCc1ccc(C(=O)NCc2ccc(C)cc2)cc1 | -1
N/C(=N\NS(=O)(=O)c1ccccc1C(F)(F)F)c1ccccn1 | 1

The closing two compounds of the part above are carried over, then new ones follow:
SMILES | Biofilm kill mix
CSCc1ccc(C(=O)NCc2ccc(C)cc2)cc1 | -1
N/C(=N\NS(=O)(=O)c1ccccc1C(F)(F)F)c1ccccn1 | 1
CCN1C(=O)C(C)S/C1=N\S(=O)(=O)c1ccc(F)cc1 (stereo not given) | 8
O=[N+]([O-])c1ccc(C[n+]2cc(-c3ccc(Cl)c(Cl)c3)n3c2CCCCC3)cc1 | 8
CCc1cc2c(=O)[nH]c(-c3ccncc3)nc2s1 | 8
CCN1CCN(c2nc(Nc3ccc(C)c(C)c3)nc(N)c2[N+](=O)[O-])CC1 | 9
O=C(Nc1cccc(C(F)(F)F)c1)C1(c2ccccc2)CC1 | 10
O=C(Oc1ccc(C(=S)N2CCOCC2)cc1)c1ccccc1 | -4
COc1ccc(N(C(=O)CCl)C(C(=O)NCCc2ccccc2)c2cccs2)cc1Cl (stereo not given) | 19
COc1ccc(CNC(=O)CCNS(=O)(=O)c2cccc3nsnc23)cc1 | -4
CCC(=O)NCCCc1nc2ccccc2n1Cc1ccccc1F | 18
Cc1cc(C)nc(/N=C(\N)N(Cc2ccccc2)Cc2ccccc2)n1 | 11
COc1cccc(CCNC(=O)CC2C(=O)NCCN2CC(C)(C)C)c1 (stereo not given) | 14
CCN(CC)C(=O)C(=O)Nc1cccc(Br)c1 | 10
Cc1ccc(N(C(=O)c2ccc(S(=O)(=O)N(C)C)cc2)C2C=CS(=O)(=O)C2)cc1 (stereo not given) | -1
CCOc1ccc(C(=S)N2CCOCC2)cc1OC | 16
O=C(Cc1ccccc1)Nc1nnc(-c2ccco2)o1 | 20
COc1ccccc1NC(=O)Nc1ccc(C(N)=O)cc1 | 13
O=C1CC(C(F)(F)C(F)(F)C(F)(F)F)=Nc2ccccc2N1 | 19
COc1ccc(S(=O)(=O)N2CCOCC2)cc1NC(=O)COC(=O)c1ccc(C)s1 | 8
CCc1ccccc1N(C)S(=O)(=O)c1ccc2[nH]cc(C(=O)N3CCc4ccccc43)c(=O)c2c1 | 4
CC(C)CNC(=S)NC(=O)c1csc([N+](=O)[O-])c1 | 19
CC1=NN(c2nc(-c3ccc(C)cc3)cs2)C(=O)C1N=Nc1cccc(C)c1 (stereo not given) | 13
Nc1cc(=O)[nH]c(SCC(=O)NC2CCCc3ccccc32)n1 (stereo not given) | -2
N/C(=N\c1nc2ccccc2o1)NC(=O)c1cccc(Br)c1 | 14
O=S(=O)(NCC(c1cccnc1)N1CCN(c2ccc(F)cc2)CC1)c1cc(F)ccc1F (stereo not given) | 14
COCc1c(C(=O)OC)nnn1-c1ccccc1 | 18
O=C(Nc1ccc(F)cc1F)NC1CC1 | 15
COc1ccc(OC)c(C2=NNC(=NCc3ccc4c(c3)OCO4)SC2)c1 | -5
C/[N+]([O-])=C\C1C(=O)CC(C)(C)CC1=O | -9
O=C(CN1CCC(NC(=O)c2ccco2)CC1)Nc1ccccc1[N+](=O)[O-] | 9
CCOC(=O)c1c(NC(=O)Cn2cnc([N+](=O)[O-])n2)sc(C)c1C | 3
Cc1nnc(SCc2nc3ccccc3s2)n1N | 6
FC(F)(F)c1cccnc1-n1cncn1 | 13
COc1cc(/C=N/N=C(N)N)ccc1OCc1ccc(Cl)cc1 | 17
COc1cc(OC)c2c(-c3ccccc3)cc(=O)oc2c1C(CCN1CCCC(C)C1)c1ccc(N(C)C)cc1 (stereo not given) | 24
CCN1C(=O)c2ccccc2S(=O)c2ccc(C(=O)N3CCOCC3)cc21 (stereo not given) | 15
COc1ccc(OC)c2sc(N(CCN(C)C)C(=O)c3cc(Cl)sc3Cl)nc12 | 21
CCNc1nnc(CCn2nc(C)c(Br)c2C)s1 | 0
CCOC(=O)c1cc2c(ccn2-c2ccc(F)cc2)n1CC(=O)N(CC)CC | 11
COc1cccc(C(C(=O)NC(C)(C)C)N(CC(C)C)C(=O)CCC(=O)Nc2cc(C)on2)c1OC (stereo not given) | 9
COc1ccc(C(=O)CSc2n[nH]c(-c3ccncc3)n2)cc1[N+](=O)[O-] | 13
c1ccc(-c2ccc(SCc3cccnc3)nn2)nc1 | 21
S=c1[nH]nc(-c2ccncc2)n1/N=C/c1cccc(Cl)c1 | 28
COc1ccc(CCNC(=O)/C=C/c2cc(OC)c(OC)c(OC)c2)cc1OC | 17
Cc1ccc(C(=O)Nc2ccc3c4c(cccc24)CC3)cc1[N+](=O)[O-] | 12
O=C(O)CC1=C(Nc2ccccc2)C(=O)N(c2ccccc2)C1c1ccc(F)cc1 (stereo not given) | 5
Cc1ccc(N2C(=O)CCC2(C(N)=O)c2ccccc2)cc1 (stereo not given) | 19

In the list so far, these have an NH in an aromatic ring.
SMILES | Biofilm kill mix
CCOC(=O)Cc1c(C)[nH]n(-c2ccccc2)c1=O | 20
Cc1ccc(S(=O)(=O)n2[nH]c(=O)cc2N)cc1 | 20
CCOCCn1c(N2CCN(c3ccccc3)CC2)nc2c1c(=O)[nH]c(=O)n2C | 15
Cn1c(=O)[nH]c(=O)c2c1nc([N+](=O)[O-])n2Cc1ccccc1 | 10
COC(=O)C1=C(C)N(CCc2c[nH]c3ccccc23)C(=O)C1 | 14
Cc1[nH]n(-c2ncc(-c3ccc(Cl)cc3)s2)c(=O)c1C(c1ccc(Cl)cc1)C(C#N)C#N (stereo not given) | 14
COc1ccc(N=C2S/C(=C\c3ccc(OCC(=O)O)cc3)C(=O)N2CCc2c[nH]c3ccccc23)cc1 | 15
Cc1ccccc1N1CCN(C2=NC(=O)/C(=C/c3cn[nH]c3-c3ccccc3)S2)CC1 | 4
O=C(N/N=C/c1ccc[nH]1)c1ccc(Cl)cc1 | 10
CCc1cc2c(=O)[nH]c(-c3ccncc3)nc2s1 | 8
CCc1ccccc1N(C)S(=O)(=O)c1ccc2[nH]cc(C(=O)N3CCc4ccccc43)c(=O)c2c1 | 4
Nc1cc(=O)[nH]c(SCC(=O)NC2CCCc3ccccc32)n1 (stereo not given) | -2
COc1ccc(C(=O)CSc2n[nH]c(-c3ccncc3)n2)cc1[N+](=O)[O-] | 13
S=c1[nH]nc(-c2ccncc2)n1/N=C/c1cccc(Cl)c1 | 28

Screens deposited in PubChem by PCMD.

This is a subset; rates above refer to the full screens.
